EPAC1 ag val = human EPAC1 agonism, validation; 1% of 16,000 active; EPAC1 Rap1b BODIPY-GDP exchange, fluorescence; Potency, µM, for inactives: max response, positive = active, hits mostly activators; O95398; AID 1645883; active means well fitted activation curve with a large enough effect; inconclusive means small, poorly fitted or top-dose-only effect; inactive means no such curve, though single readings can be large or run the other way;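 further: nearly all actives have a fitted effect of over 70% in size; series mostly up to about 76 or 150 µM; scaled to a cAMP control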
Target sequence (O95398 whole entry, looked up): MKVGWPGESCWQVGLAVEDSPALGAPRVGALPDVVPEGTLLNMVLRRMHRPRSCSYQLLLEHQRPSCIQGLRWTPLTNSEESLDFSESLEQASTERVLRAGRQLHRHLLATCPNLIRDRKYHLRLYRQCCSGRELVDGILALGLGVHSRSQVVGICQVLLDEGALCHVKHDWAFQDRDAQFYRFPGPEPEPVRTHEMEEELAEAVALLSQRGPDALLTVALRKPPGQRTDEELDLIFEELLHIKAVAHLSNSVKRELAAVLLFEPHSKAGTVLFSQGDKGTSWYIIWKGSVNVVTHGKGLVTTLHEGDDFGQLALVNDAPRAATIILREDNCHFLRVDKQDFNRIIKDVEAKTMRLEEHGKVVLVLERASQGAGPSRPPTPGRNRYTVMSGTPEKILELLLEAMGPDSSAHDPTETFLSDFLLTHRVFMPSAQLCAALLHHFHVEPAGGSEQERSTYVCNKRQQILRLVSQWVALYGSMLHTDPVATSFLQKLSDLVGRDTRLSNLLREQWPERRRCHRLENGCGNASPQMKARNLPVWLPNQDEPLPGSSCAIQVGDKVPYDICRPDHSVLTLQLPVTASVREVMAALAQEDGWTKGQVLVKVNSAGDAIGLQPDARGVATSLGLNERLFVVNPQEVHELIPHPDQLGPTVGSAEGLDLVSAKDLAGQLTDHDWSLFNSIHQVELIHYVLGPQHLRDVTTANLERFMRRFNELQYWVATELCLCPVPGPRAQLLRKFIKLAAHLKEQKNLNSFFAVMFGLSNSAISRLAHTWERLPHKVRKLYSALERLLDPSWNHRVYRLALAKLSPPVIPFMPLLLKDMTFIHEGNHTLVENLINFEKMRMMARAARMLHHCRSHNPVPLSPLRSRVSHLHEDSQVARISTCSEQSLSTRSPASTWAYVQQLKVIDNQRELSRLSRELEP
An asterisk follows results filed as active; ? = inconclusive; & = joins results of further samples; [ ] = dose if it differs, or a comment. On the % scale 0 is the no-effect control and ±100 the full control effect; potency means the concentration at half of the fitted maximal effect. Only part of the results is shown, so the mix of outcomes need not match the whole.

SMILES | EPAC1 ag val
c1cc(NC2CC2)nc(-c2ccoc2)n1 | -14.8%
CN(C)C(=O)Oc1ccc[n+](C)c1 | 3.0%&25.2%
N[C@@H](CSCCCO)C(=O)O | -13.2%
CC1C(=O)CC2C3(C)CCC2(C(C)C(=O)O)C(=O)C13 (stereo not given) | -2.4%
Cc1ncc2c(c1CNC(=O)c1ccc3c(c1)OCO3)CCN(C(=O)c1ccoc1)C2 | -0.6%
Clc1ccccc1-c1nccc(NCc2cccs2)n1 | -39.9%[inhibitor]
O=C1CCNCCN1[C@H](CO)Cc1ccccc1 | 8.0%
O=C(c1cccc(F)c1)N1CCC[C@@]2(CCN(c3cccc(-c4ccccc4)c3)C2)C1 | -39.2%
CC[C@H](/C=C/[C@@H](C)[C@H]1CC[C@H]2C3CC=C4C[C@@H](O)CC[C@]4(C)C3CC[C@]12C)C(C)C (stereo not given in full) | -15.2%
COC(=O)[C@@H]1CCCN1C(=O)c1c(OC)cc(=O)n2c1CCN(Cc1cc(OC)ccc1F)CC2 | -0.3%
CCCCCCCCCCCCCCCCC(C(=O)O)C(O)(CC(=O)O)C(=O)O (stereo not given) | -63.3%[inhibitor]
Cc1nc2cnc(N3CCN(C)CC3)nc2n(-c2ccccc2)c1=O | -35.5%[inhibitor]
CN(C)c1ncc2nc(-c3cccc(C#N)c3)c(=O)n(C)c2n1 | -13.3%
O=C(O)C1Cc2c([nH]c3ccccc23)C(c2coc3ccccc3c2=O)N1 (stereo not given) | 19.7%
CNC[C@@H](O)[C@@H](O)[C@H](O)[C@H](O)CO | -19.6%
CCNc1ncc2nc(-c3ccccc3)c(=O)n(Cc3cccc(OC)c3)c2n1 | -30.8%[inhibitor]
COc1ccc(CCN(C)C(=O)c2cnn(-c3nccc(-c4ccc(C)o4)n3)c2C)cc1OC | -2.8%
CCC(C)(C)C(=O)O[C@@H]1C[C@@H](C)C=C2C=C[C@H](C)[C@H](CC[C@@H]3C[C@@H](O)CC(=O)O3)[C@H]21 | -42.9%[inhibitor]
C=C[C@@H]1c2cc(C)ccc2N(S(=O)(=O)c2ccc(C)cc2)[C@H](c2ccccc2)C1(C#N)C#N | -17.1%
COc1cc2nc(CC(O)c3nc4cc(OC)c(OC)cc4[nH]3)[nH]c2cc1OC (stereo not given) | 19.1%

New compounds follow
SMILES | EPAC1 ag val
CCCC[C@@H](C=O)NC(=O)[C@H](CC(C)C)NC(=O)[C@H](CC(C)C)NC(C)=O | -8.9%
COCCn1c(=O)c(CCc2ccccc2)nc2cnc(Oc3ccc(OC)cc3)nc21 | -21.1%
COc1cccc(-c2cnc(-c3ccncc3)nc2C2CCN(C(=O)Cc3csc(C)n3)CC2)c1 | -4.2%
O=C(C[n+]1c(Cl)cc(Cl)c2ccccc21)c1ccccc1 | -11.7%
O=C(OCCO)c1ccccc1O | 3.4%
Cc1cnc(C)c(-c2ccc3c(c2)CC(CNC(=O)Cc2c(C)[nH]c4ccccc24)O3)n1 (stereo not given) | -6.6%
C[C@]12CC[C@@H]3c4ccc(O)cc4CC[C@H]3[C@@H]1CC[C@@H]2OP(=O)(O)O | 1.7%
CCOC(=O)c1ccc(N(C(=O)c2ccccc2)c2ccccc2)cc1 | ?
COC(=O)c1c(OCc2ccccn2)cc(=O)n2c1CCN(Cc1ccc3nsnc3c1)CC2 | -3.7%
CCOC(=O)[C@H](CS)NCCN[C@@H](CS)C(=O)OCC | -28.9%
CC(=O)OC1CC2C(C)(C)C(O)C=C[C@@]2(C)C2CC[C@@]3(C)C(c4ccoc4)OC(=O)C4OC43[C@]12C (stereo not given in full) | 1.3%
Cc1ccccc1-c1cncnc1N1CCNCC1 | -51.2%[inhibitor]
Nc1ncnc2c1nc(Br)n2[C@@H]1O[C@H]2COP(=O)(O)O[C@@H]2[C@@H]1O | ?
Cn1cccc1C(=O)N1CCC[C@@]2(CCN(c3ccccc3)C2)C1 | -38.5%[inhibitor]
Cc1c(C(=O)NCCN2CCC(c3ccccc3)CC2)cnn1-c1nccc(-c2cccs2)n1 | 2.4%
CC(=O)O[C@@H]1C(=O)O[C@@H]2[C@H]1OC(=O)[C@@H]2OC(C)=O | 7.5%
CC1(C)CCC2=C(O1)c1ccccc1C(=O)C2=O | -6.9%&-45.5%
COc1ccc(C(=O)NCCN2Cc3cc(C)ccc3OC(C)C2)c(OC)n1 (stereo not given) | -7.1%
Clc1ccc(C(c2ccc(Cl)cc2)n2cc[n+](CC(OCc3ccc(Cl)cc3Cl)c3ccc(Cl)cc3Cl)c2)cc1 (stereo not given) | ?
NCCCC[C@H](NC(=O)[C@@H]1CCCN1C(=O)[C@@H]1CSSC[C@H](N)C(=O)N[C@@H](Cc2ccc(O)cc2)C(=O)N[C@@H](Cc2ccccc2)C(=O)N[C@@H](CCC(N)=O)C(=O)N[C@@H](CC(N)=O)C(=O)N1)C(=O)NCC(N)=O | -4.5%&0.9%

Of the compounds above, these contain a halogen.
SMILES | EPAC1 ag val
Clc1ccccc1-c1nccc(NCc2cccs2)n1 | -39.9%[inhibitor]
O=C(c1cccc(F)c1)N1CCC[C@@]2(CCN(c3cccc(-c4ccccc4)c3)C2)C1 | -39.2%
COC(=O)[C@@H]1CCCN1C(=O)c1c(OC)cc(=O)n2c1CCN(Cc1cc(OC)ccc1F)CC2 | -0.3%
O=C(C[n+]1c(Cl)cc(Cl)c2ccccc21)c1ccccc1 | -11.7%
Nc1ncnc2c1nc(Br)n2[C@@H]1O[C@H]2COP(=O)(O)O[C@@H]2[C@@H]1O | ?
Clc1ccc(C(c2ccc(Cl)cc2)n2cc[n+](CC(OCc3ccc(Cl)cc3Cl)c3ccc(Cl)cc3Cl)c2)cc1 (stereo not given) | ?

Other compounds
SMILES | EPAC1 ag val
CCOCCn1c(N2CCCN(C)CC2)nc2ccccc21 | -14.6%
COc1cccc(-c2nc(NCc3ccccc3)c3ccccc3n2)c1 | -47.7%
COCC(=O)N1CCC2(CCCN(Cc3nccs3)C2)CC1 | -48.6%[inhibitor]
c1ccc(Cc2nnc3n2CCN(Cc2cnc(-c4ccccc4)s2)CC3)cc1 | -6.0%
CC(CCC(=O)O)C1CCC2C3CC(O)[C@@H]4CC(O)CC[C@]4(C)C3CC[C@@]12C (stereo not given in full) | 28.7%
CC(=O)[C@@]1(O)CC[C@H]2[C@@H]3C[C@H](C)C4=CC(=O)CC[C@]4(C)[C@H]3CC[C@@]21C | 4.0%
Cc1cc(C)c(/C=C2\C(=O)Nc3ccccc32)[nH]1 | ?
O=S(=O)(NCc1nc(N2CCCC2)c2cc(Cl)ccc2n1)c1ccccc1OC(F)(F)F | 4.2%
O=C(CCC1CCN(Cc2ccccc2)CC1)c1ccc2c(c1)NCCCC2 | 18.5%
CC(=O)O[C@@]1(C(C)=O)CCC2C3C=C(C)C4=CC(=O)CCC4(C)C3CCC21C (stereo not given in full) | ?
Cc1cc(CNC(=O)c2cnn(-c3nccc(-c4ccc5c(c4)OCO5)n3)c2C2CC2)on1 | -8.9%
CC(C)(C)C(=O)OCC(=O)[C@H]1CC[C@H]2[C@@H]3CCC4=CC(=O)CC[C@]4(C)[C@H]3CC[C@]12C | -23.9%
CCCCOc1ccc(OCCCN2CCOCC2)cc1 | -31.0%&-9.5%[inhibitor]
COc1cccc(-c2cncnc2NCCc2c[nH]c3ccc(OC)cc23)c1 | ?
N#Cc1ccc(CN2CC[C@@]3(CCCN(C(=O)c4cccc(F)c4)C3)C2)cc1 | 8.9%
Cc1cnc(-n2ncc(C(=O)N(CCO)C(C)C)c2-c2cccs2)nc1-c1ccc(F)cc1 | -13.8%
CC1(C)CC2C1CCC1(C)OC2(C)CCC1O (stereo not given) | -33.5%[inhibitor]
CCCOC(=O)N[C@@H]1C(=O)N2C(C(=O)OCCC)=C(C)CS[C@H]12 | 17.2%
Cc1nc(C(C)NC2CCN(c3cccc(NC(=O)c4ccncc4)c3)CC2)cs1 (stereo not given) | 2.4%
O=C([C@@H]1CC=C[C@@H]2CCN(C3CC3)C(=O)[C@@H]21)N1CCN(c2ccccc2)CC1 | 18.3%

A second format for part of the listing above.
Structure: COc1cccc(-c2nc(NCc3ccccc3)c3ccccc3n2)c1
  EPAC1 ag val: -47.7%

Structure: COCC(=O)N1CCC2(CCCN(Cc3nccs3)C2)CC1
  EPAC1 ag val: -48.6%[inhibitor]

Structure: c1ccc(Cc2nnc3n2CCN(Cc2cnc(-c4ccccc4)s2)CC3)cc1
  EPAC1 ag val: -6.0%

Next section:
SMILES | EPAC1 ag val
Cc1noc(NS(=O)(=O)c2ccc(N)cc2)c1C | -8.2%&-16.9%&22.6%&-13.5%
CN(C)Cc1ccccc1-c1ccc2ncnc(N(C)Cc3ccco3)c2c1 | 13.8%
Cc1ccc(CN2CCCOCCS2(=O)=O)cc1 | 25.6%
Cc1cc(C)c(C(=O)NCc2nc(-c3cccc(NC(=O)C4CCCN(C)C4)c3)oc2C)[nH]1 (stereo not given) | -0.2%
COc1ccc(CNc2ncncc2-c2ccccc2OC)c(OC)c1 | -21.3%
C=C(c1ccc(C(=O)O)cc1)c1cc2c(cc1C)C(C)(C)CCC2(C)C | -14.0%
CCCCCCCCCCCCCCCCCCOCC(O)CO (stereo not given) | -26.6%
O=C(NC1CCN(Cc2ccccc2)CC1)c1ccc(I)cc1 | -17.4%&-11.3%
COc1cc(-c2cccc(OC)c2OC)cc2c1OCCN(Cc1cn[nH]c1-c1ccc(Cl)cc1)C2 | 3.1%
C/C=C1\C2C=C(C)C[C@@]1(N)c1ccc(=O)[nH]c1C2 | ?
COc1ccc(CN(CCN(C)C)c2ncccn2)cc1 | -25.4%
O=c1cc(-c2cccc(O)c2)oc2ccc(O)cc12 | 4.7%
CC(C)(C)CC(=O)OCC(=O)[C@@]12OC(C)(C)O[C@@H]1C[C@H]1[C@@H]3CCC4=CC(=O)C=C[C@]4(C)[C@@]3(F)[C@@H](O)C[C@@]12C | 18.0%
CC1(C)CCC=[N+]1[O-] | -7.3%
Cc1cnc(C)c(-c2ccc(F)c3c2OC(CNC(=O)Cc2c(F)cccc2F)C3)n1 (stereo not given) | -18.6%
O=C(C[N+]1(CCc2ccccc2)CCOCC1)c1cccc([N+](=O)[O-])c1 | ?
CN(C)c1ncc2nc(-c3cccs3)c(=O)n(Cc3cccs3)c2n1 | ?
COC(=O)C1N2C(=O)[C@@H](NC(=O)COc3ccccc3)[C@H]2SC1(C)C (stereo not given in full) | ?
O=S1(=O)CCO[C@H]2Cc3ccccc3[C@H]2N1Cc1cccc(C(F)(F)F)c1 | -83.8%[inhibitor]
COc1cc(NS(C)(=O)=O)ccc1Nc1c2ccccc2nc2ccccc12 | 5.3%&-1.4%

Next entries follow:
Structure	EPAC1 ag val
C=C1C[C@]23C[C@@]1(O)CC[C@H]2[C@@]12C=C[C@H](O)[C@@](C)(C(=O)O1)[C@H]2[C@@H]3C(=O)O	44.7µM*
COc1cc(OC)c2cc(-c3ccncc3)cnc2c1	-17.9%
CS(=O)(=O)N1CCC2(CCN(c3ccccn3)CC2)CC1	16.2%
Cc1nc(CC(=O)N2CCC(n3c(C4CCC4)nc4cccnc43)CC2)cs1	-11.0%
COC(=O)c1cc(CNC(=O)c2ccncc2)cc(NC(=O)c2ccccc2Cl)c1	4.1%
Ic1ccc(N2CCN(Cc3c[nH]c4ncccc34)CC2)cc1	7.1%&-6.1%
O=C(C[C@H]1C(=O)N(CCc2ccccc2)C[C@@H]1Cc1ccccc1)Nc1ccccc1	-67.0%[inhibitor]
O=C(Nc1ccccc1)N1CCC2(CC1)CCN(C(=O)c1ccncc1)CC2	-51.1%[inhibitor]
CCOc1cc(-c2nccc3cc(OC)c(OC)cc23)cc(OCC)c1OCC	-39.2%[inhibitor]
CN(C)c1ncc2nc(-c3ccccc3)c(=O)n(C)c2n1	?
COc1cc2oc(=O)c3c4c(cc5ccc(c1CCN(C)C)c2c53)OCO4	-7.6%
COc1ccc(CNc2ncnc3ccc(-c4ccccc4OC)cc23)c(OC)c1	?
CCOC(=O)c1ccc(NC(=O)CN2CCCCC2)cc1	?
COC(=O)N1CCC2(CC1)CCN(c1cccc(-c3ccccc3)c1)CC2	100µM*
CC(C)c1c(C(=O)N(C)C2CCN(C)CC2)cnn1-c1nccc(-c2ccco2)n1	-31.1%[inhibitor]
O=c1[nH]cnc2c1nc(Cl)n2C1OC(CO)C(O)C1O (stereo not given)	3.6%
CC1=C(/C=C/C(C)=C/C=C/C(C)=C/C=C/C=C(C)/C=C/C=C(C)/C=C/C2=C(C)C(=O)CCC2(C)C)C(C)(C)CCC1=O	-62.2%[inhibitor]
CCCCCc1ccc(-c2cn(Cc3ccc(C(=O)c4ccccc4)cc3)nn2)cc1	11.5%
Cc1cccc(CNC(=O)c2cnn(-c3ncc(C)c(-c4ccc(F)cc4)n3)c2C)n1	0.4%
CS(=O)(=O)N1CCC2(CCCN(c3ccccn3)C2)CC1	-70.6%[inhibitor]
COCCn1c(=O)cnc2cnc(Nc3ccccc3)nc21	-39.6%[inhibitor]
O=C(O)C(S)[C@@H](S)C(=O)O (stereo not given in full)	?
COc1ccc(C(=O)CCC(=O)O)c2ccccc12	-32.3%[inhibitor]
CC(C)CN1CCC(=O)N(CCSc2ccccc2)CC1	-1.4%
COc1cccc(-c2nccc(-n3ccnc3)n2)c1	26.4%

Remaining list, next part:
Structure	EPAC1 ag val
CN1CCCC(CN(C)C(=O)c2cnn(-c3nccc(-c4ccccc4C(F)(F)F)n3)c2C2CC2)C1 (stereo not given)	-16.3%
Fc1ccc(Nc2ncnc3ccc(-c4ccoc4)cc23)cc1	-31.9%[inhibitor]
FC(F)(F)c1ccccc1-c1nccc(NCCN2CCOCC2)n1	-22.4%
O=C1CC[C@H](O)CCN1[C@H](CSc1ccc(Br)cc1)Cc1ccccc1	3.8%
Cc1cccc(CNc2nc(-c3ccc4c(c3)OCO4)nc3ccccc23)c1	112µM*
OC1CCC2Cc3ccccc3N=C12 (stereo not given)	6.1%
COc1c(-c2ccc(O)c(O)c2)oc2cc(O)cc(O)c2c1=O	2.1%
COC(=O)[C@H](Cc1ccccc1)NC(=O)[C@@H](N)CC(=O)O	-11.9%&4.3%
COc1ccc(CN2[C@@H](CC(C)=O)c3ccc(/C=C/C(C)=O)cc3S2(=O)=O)cc1	-4.9%
C[C@@](N)(C(=O)O)c1cccc(CC(=O)O)c1	-1.6%
CCC(COC)NC(=O)c1cnn(-c2ncc3c(n2)-c2ccccc2CCC3)c1C (stereo not given)	10.1%
